Assay outcomes as filed in PubChem BioAssay.
Measles inh: inhibitors of measles virus growth in cells, primary screen, measles RdRp inhibitor project, cell-based, single point, HTS; AID 745, 2007; z-score (test concentration not listed); 0.1% of 33,000 active; infected Vero cells, GFP fluorescence, 64 h; hits give low values;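 active = z-score under -3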;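 note: score is relative to mean and SD of the compound wells of a plate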
* = called active by the depositor. An excerpt; the hit share may differ from the screen's.

COc1cc(CN2CCNCC2)cc(OC)c1OC
  Measles inh: -0.82

COc1ccc(C(C#N)C(C)=O)cc1OC (centres undefined)
  Measles inh: 0.14

CCNCCNc1ccc([N+](=O)[O-])c2cccnc12
  Measles inh: -0.84

CCOC(=O)C1C2NC(=S)N(CCc3ccccc3)C1(C)Oc1ccccc12 (centres undefined)
  Measles inh: -0.16

O=C(c1ccccc1)c1cc(Cl)ccc1N1C(=O)c2cccc([N+](=O)[O-])c2C1=O
  Measles inh: 1.9

CC(Oc1ccc(-c2ccccc2)cc1)C(=O)O (centres undefined)
  Measles inh: -0.02

CCCCn1c(C)c(C(=O)OCC)c2cc(OC(C)=O)c3ccccc3c21
  Measles inh: -0.15

CSc1ccc(C=Cc2nc3ccccc3c(=O)n2-c2ccc(Cl)cc2)cc1
  Measles inh: -0.16

Cn1cc(CNC2CCCCC2)c2ccccc21
  Measles inh: -1.2

CCOc1cccc(C(O)CNC)c1 (centres undefined)
  Measles inh: 0.64

C=CCN1C(=O)C2(C(C(=O)OCC)=C(C)OC(N)=C2C(=O)OC)c2ccccc21 (centres undefined)
  Measles inh: 0.03

COC(=O)c1ccccc1NC(=O)CN1C(=O)CN=C(c2ccccc2)c2ccccc21
  Measles inh: -0.35

Cc1nnc(NC(=O)c2c(O)c3ccccc3n(Cc3ccccc3)c2=O)s1
  Measles inh: -1.4

CN(C)c1ccc(NC(=O)CN2C(=O)CN=C(c3ccccc3Cl)c3cc(Cl)ccc32)cc1
  Measles inh: -0.55

CCOC(=O)C1C2NC(=S)N(c3ccc(Cl)cc3)C1(C)Oc1c(OC)cccc12 (centres undefined)
  Measles inh: 0.29

CCCC[n+]1cc(=N)o[n-]1
  Measles inh: -0.75

C=CCN(C(=O)CN1C(=O)C(C)N=C(c2ccccc2)c2ccccc21)c1ccccc1 (centres undefined)
  Measles inh: -0.11

CC(C)(C)N1NC1C1NN1C(C)(C)C (centres undefined)
  Measles inh: 2.2

Cc1c(Cl)cccc1NC(=O)CN1C(=O)C(C)N=C(c2ccccc2)c2cc(Cl)ccc21 (centres undefined)
  Measles inh: 0.15

O=c1c2ccccc2[nH]c(=S)n1-c1ccccc1
  Measles inh: -0.53

CC1N=C(c2ccccc2)c2ccccc2N(CC(=O)Nc2ccc(N(C)C)cc2)C1=O (centres undefined)
  Measles inh: -0.96

COc1ccc(C2(CN)CCCCC2)cc1OC
  Measles inh: -0.09

NC1=C(C(=O)OCc2ccccc2)C2(C(=O)Nc3ccccc32)C2=C(CCCC2=O)O1 (centres undefined)
  Measles inh: 0.64

Cc1cc(C)cc(-n2c(C=Cc3ccccc3)nc3ccccc3c2=O)c1
  Measles inh: 0.59

CCCCCCn1c(N)c(C(=O)OC)c2nc3ccccc3nc21
  Measles inh: 1.1

COC(=O)c1c(N)n(Cc2ccco2)c2nc3ccccc3nc12
  Measles inh: -0.09

COc1cc(COc2cc(C)cc3oc(=O)c4c(c23)CCCC4)cc(OC)c1OC
  Measles inh: -0.8

COC(=O)C1=C(N)OC2=C(C(=O)CC(C)(C)C2)C12C(=O)Nc1ccccc12 (centres undefined)
  Measles inh: -0.17

CCOC(=O)C1C2NC(=S)N(CC)C1(C)Oc1ccc(Cl)cc12 (centres undefined)
  Measles inh: -0.62

CCCN(CCC)c1ccc([N+](=O)[O-])c2nonc12
  Measles inh: 7.4

CCC(=O)N1CC(=O)Nc2ccc(Cl)cc2C1c1ccc(F)cc1 (centres undefined)
  Measles inh: -0.2

O=C(Nc1ccc(Br)cc1C(=O)c1ccccc1Cl)c1ccccc1F
  Measles inh: -0.56

O=C1NC(=O)C2(C(=O)N1)C(c1cccs1)NC(=O)NC2c1cccs1 (centres undefined)
  Measles inh: -0.39

O=c1c2c3c(sc2nc(SCCS(=O)(=O)F)n1-c1ccccc1)CCCC3
  Measles inh: -1.5

Cc1ccccc1CN1C(=O)CN=C(c2ccccc2)c2ccccc21
  Measles inh: 0.65

NC(=O)C1(N2CCCCC2)CCN(CC(=O)Nc2ccc(Cl)cc2C(=O)c2ccccc2)CC1
  Measles inh: -0.64

OCCNCCCCc1c[nH]c2ccccc12
  Measles inh: 0.9

C=CCC1C(=O)NC(=S)NC1=O
  Measles inh: 0.35

c1ccc2c(CNC3CCCCCC3)c[nH]c2c1
  Measles inh: -1.6

Cc1ccc(-n2c(C=Cc3ccccc3Cl)nc3ccccc3c2=O)cc1
  Measles inh: 0.1

COc1ccc(OCC(=O)Nc2ccc(Cl)cc2C(=O)c2ccccc2)cc1
  Measles inh: -1.1

C=CS(=O)C1CC2(Cl)C(Cl)=C(Cl)C1(Cl)C2(Cl)Cl (centres undefined)
  Measles inh: 0.73

O=C1c2ccccc2C2(c3ccc(Cl)cc3)NCCN12 (centres undefined)
  Measles inh: -0.5

COc1ccc(C2(CN)CCCC2)cc1
  Measles inh: 0.58

C1CCN2CC3C(CC2C1)CN1CCCCC31 (centres undefined)
  Measles inh: 0.13

CCSc1nc2ccccc2c(=O)n1-c1cccc(C)c1
  Measles inh: 0.33

Nc1nonc1[N+](=O)[O-]
  Measles inh: 0.84

CSc1cccc(NC(=O)CN2C(=O)C(C)N=C(c3ccccc3)c3cc(Cl)ccc32)c1 (centres undefined)
  Measles inh: 1.5

CCC(CC)N1CCN(Cc2ccccc2F)CC1
  Measles inh: -0.37

O=C(Nc1ccccn1)c1c(O)c2c(n(Cc3ccco3)c1=O)CCCC2
  Measles inh: -0.71

2 compounds drawn at random from the list so far, as already listed:
COc1ccc(OCC(=O)Nc2ccc(Cl)cc2C(=O)c2ccccc2)cc1
  Measles inh: -1.1

O=C(Nc1ccccn1)c1c(O)c2c(n(Cc3ccco3)c1=O)CCCC2
  Measles inh: -0.71

More structures.
CCCCC[n+]1ccc(-c2cc[n+](CCCCC)cc2)cc1
  Measles inh: -1.1

O=C(COc1ccc(Cl)cc1)Nc1ccc(Cl)cc1C(=O)c1ccccc1
  Measles inh: -0.57

CCOC(=O)CN1C(=O)CN=C(c2ccccc2)c2cc(Cl)ccc21
  Measles inh: 0.09

CCSc1nc2ccccc2c(=O)n1-c1ccccc1
  Measles inh: -0.3

c1cc2c(cc1CCNC1C3CC4CC(C3)CC1C4)OCO2 (centres undefined)
  Measles inh: -0.55

CCOC(=O)C1=C(N)Oc2n[nH]c(-c3cccc([N+](=O)[O-])c3)c2C12C(=O)Nc1ccccc12 (centres undefined)
  Measles inh: -0.96

CC1N=C(c2ccccc2)c2ccccc2N(CC(=O)N2CCCC2)C1=O (centres undefined)
  Measles inh: -0.45

CN(c1ccc(O)cc1)c1ccc([N+](=O)[O-])c2nonc12
  Measles inh: -0.41

O=[N+]([O-])c1ccc(NCCOc2ccccc2F)c2cccnc12
  Measles inh: -0.12

COC(=O)C1C2NC(=S)N(c3cccc(Cl)c3)C1(C)Oc1ccc(Br)cc12 (centres undefined)
  Measles inh: -2.1

O=C1C2CCN(CC2)C1Cc1ccco1 (centres undefined)
  Measles inh: 2.1

Nc1[nH]ncc1[N+](=O)[O-]
  Measles inh: -0.08

CC1(C)CC(Nc2nc(Cl)c(C#N)c(Cl)c2Cl)CC(C)(C)N1
  Measles inh: -0.29

COc1ccc2[nH]cc(CCNC(C)C)c2c1
  Measles inh: -0.41

Cc1cc(Cl)ccc1-n1c(C=Cc2ccc(F)cc2)nc2ccccc2c1=O
  Measles inh: -0.11

COc1ccc2[nH]c(C)c(CCNCc3cccnc3)c2c1
  Measles inh: 0.38

CN(C)c1ccc(NC(=O)CN2C(=O)CN=C(c3ccccc3)c3cc(Cl)ccc32)cc1
  Measles inh: 2.1

CCOC(=O)C1=C(N)OC2=C(C(=O)CC(C)(C)C2)C12C(=O)N(CC(=O)OC)c1ccccc12 (centres undefined)
  Measles inh: 0.3

O=c1c2ccccc2nc(C=Cc2ccc([N+](=O)[O-])cc2)n1-c1ccc(Br)cc1
  Measles inh: -0.13

Cc1ccc(-n2c(C=Cc3ccc(F)cc3)nc3ccccc3c2=O)cc1F
  Measles inh: -2.2

Ordered by molar mass (ascending): part of the list above
Nc1[nH]ncc1[N+](=O)[O-]
  Measles inh: -0.08

Nc1nonc1[N+](=O)[O-]
  Measles inh: 0.84

O=C1C2CCN(CC2)C1Cc1ccco1 (centres undefined)
  Measles inh: 2.1

COc1ccc2[nH]cc(CCNC(C)C)c2c1
  Measles inh: -0.41

CCC(CC)N1CCN(Cc2ccccc2F)CC1
  Measles inh: -0.37

CCSc1nc2ccccc2c(=O)n1-c1ccccc1
  Measles inh: -0.3

COc1ccc2[nH]c(C)c(CCNCc3cccnc3)c2c1
  Measles inh: 0.38

CCSc1nc2ccccc2c(=O)n1-c1cccc(C)c1
  Measles inh: 0.33

CCCCC[n+]1ccc(-c2cc[n+](CCCCC)cc2)cc1
  Measles inh: -1.1

c1cc2c(cc1CCNC1C3CC4CC(C3)CC1C4)OCO2 (centres undefined)
  Measles inh: -0.55

O=[N+]([O-])c1ccc(NCCOc2ccccc2F)c2cccnc12
  Measles inh: -0.12

CCOC(=O)CN1C(=O)CN=C(c2ccccc2)c2cc(Cl)ccc21
  Measles inh: 0.09

CC1N=C(c2ccccc2)c2ccccc2N(CC(=O)N2CCCC2)C1=O (centres undefined)
  Measles inh: -0.45

CC1(C)CC(Nc2nc(Cl)c(C#N)c(Cl)c2Cl)CC(C)(C)N1
  Measles inh: -0.29

O=C(Nc1ccccn1)c1c(O)c2c(n(Cc3ccco3)c1=O)CCCC2
  Measles inh: -0.71

Cc1ccc(-n2c(C=Cc3ccc(F)cc3)nc3ccccc3c2=O)cc1F
  Measles inh: -2.2

Cc1cc(Cl)ccc1-n1c(C=Cc2ccc(F)cc2)nc2ccccc2c1=O
  Measles inh: -0.11

O=C(COc1ccc(Cl)cc1)Nc1ccc(Cl)cc1C(=O)c1ccccc1
  Measles inh: -0.57

CN(C)c1ccc(NC(=O)CN2C(=O)CN=C(c3ccccc3)c3cc(Cl)ccc32)cc1
  Measles inh: 2.1

O=c1c2ccccc2nc(C=Cc2ccc([N+](=O)[O-])cc2)n1-c1ccc(Br)cc1
  Measles inh: -0.13

CCOC(=O)C1=C(N)OC2=C(C(=O)CC(C)(C)C2)C12C(=O)N(CC(=O)OC)c1ccccc12 (centres undefined)
  Measles inh: 0.3

COC(=O)C1C2NC(=S)N(c3cccc(Cl)c3)C1(C)Oc1ccc(Br)cc12 (centres undefined)
  Measles inh: -2.1

More results.
COC1CC2C(Cl)C1NC2(C(F)(F)F)C(F)(F)F (centres undefined)
  Measles inh: 0.7

Cc1ccnc(-n2c(C)nc3ccccc3c2=O)c1
  Measles inh: -0.51

COc1cc(CNCCc2ccc(F)cc2)cc(OC)c1OC
  Measles inh: -1.4

Oc1ccc(Br)cc1CN1CCN(Cc2ccc(F)cc2)CC1
  Measles inh: -1.4

CC12CCCCC1CCC1C2CCC2(C)C(OC(=O)CCC(=O)O)CCC12 (centres undefined)
  Measles inh: -1.2

CCOc1cc(CN2CCN(C(=O)COc3ccc(C)cc3)CC2)ccc1OC
  Measles inh: -2.1
